# Source: PubChem BioAssay (Fisher Drug Discovery Resource Center)
# NPYLR7 ag: mosquito NPYLR7 agonism. HEK293T NPYLR7/Galpha15, GCaMP6s calcium fluorescence. activation, % at 10 µM. 270,000 tested, 0.15% active; in the data active means activation above about 40%;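 further: 0% = vehicle and 100% = reference agonist at the receptor; some compounds past the cut are filed as inactive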
# NPYLR7 ag max-min: second read-out of NPYLR7 ag, no call of its own (marks repeat the call); activation, %; measured here: Max-Min RFU normalised activation; some inactives read as strong as hits;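 span of the calcium signal over five minutes; 0% = vehicle and 100% = native peptide agonist; compound fluorescence can raise it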
# Starred values were filed as active, the others as inactive; & = joins results of further samples.
structure	NPYLR7 ag	NPYLR7 ag max-min
CCCc1nc(CNC(=O)c2c(O)cccc2O)cs1	11	8
CCc1cc(S(=O)(=O)NC(C)(C)CC(C)(C)C)ccc1OC	5	3
CC1(C)CC(NC(=O)/C=C/C(=O)O)CC(C)(C)N1	3	3
CN(C)c1noc(CCc2cnn(C)c2)n1	0	-6
CC(=O)c1ccc(C(=O)N(Cc2ccncc2)c2nc3ccc(Cl)cc3s2)cc1	-2	-10
O=C(O)c1cccc(CC2CCN(C(=O)Nc3ccccc3Cl)C2)c1 (centres undefined)	-20	-22
COC(=O)c1ccc(-c2noc(CN3CCCCC3CCn3cccn3)n2)cc1 (centres undefined)	14	6
CCn1c(C2CCCN(C(=O)c3cc(-n4cccc4)ccc3O)C2)nn(C)c1=O (centres undefined)	1	11
Cc1ccc(-c2ccc(=O)n(CCCNC(=O)Nc3cccc(C(F)(F)F)c3)n2)cc1	-2	-3
O=C(O)c1ccc(-c2n[nH]c(=O)c3ccccc23)cc1	0	0
Cc1ccc(-n2nnc(C(=O)OCc3nc(-c4cccc(Cl)c4)oc3C)c2C)cc1	17	19
CC(Sc1n[nH]c2nc3ccccc3n12)c1ccc(F)cc1 (centres undefined)	-3	-3
CCCN(Cc1cc(NC(=O)C(C)C)ccc1N(C)C)C(=O)NC(C)(C)C	-6	-5
Cc1cccc(C(C(=O)NCCSc2n[nH]c(C)n2)N(C)C)c1 (centres undefined)	2	0
CC(=O)NCCNC(=O)c1ccc(CNc2ccc(C)cc2)cc1	-4	-6
CCOC(=O)Cc1nnc(NC(=O)c2ccccc2OC)s1	-4	-6
C=CCNc1ccccc1C(=O)N1C[C@H](OC(C)C)[C@@H](O)C1	15	11
COc1cc(/C=N\NC(=O)CSc2nc3ccccc3[nH]2)cc(OC)c1OC	10	10
O=C(/C=C/c1ccc(F)cc1)Nc1nc2ccc(Br)cc2s1	-8	-11
CCOC(=O)C1C(=O)OC(C)(C)C1C(CC)C(=O)c1ccccc1 (centres undefined)	-1	-2
CN1CCN(S(=O)(=O)c2ccc3c(c2)oc(=O)n3C)CC1	1	-1
COC(=O)CCCCCCCCC(=O)N[C@H](Cc1ccccc1)C(=O)N1CCC(C(=O)N2CCCCC2)CC1	12	20
CCN1CCOC(C(=O)NC2CCN(CC3CC3)C2)C1 (centres undefined)	5	5
Cc1cc(C)cc(N2CCN(C(=O)c3ccc([N+](=O)[O-])cc3)C(C)C2=O)c1 (centres undefined)	-8	0
C=CCN(Cc1ccccc1OC)C(=O)c1ccc(Cl)s1	12	6
COc1cc(C(=O)OCn2c(SC)nnc(C)c2=O)cc(OC)c1OC	1	-3
Cc1cc(NC(=O)CSc2nnc(C)s2)no1	24&-3	18&-6
CCNC(=O)C1(C)CCCN1Cc1c(F)cccc1F (centres undefined)	2	1
COc1ccc(CN(Cc2ccc3c(c2)OCO3)CC(O)COc2ccc(OC)cc2)cc1 (centres undefined)	15	30
CC1(C)O[C@@H]2C[C@H]3[C@@H]4CCC5=CC(=O)CC[C@]5(C)[C@@]4(F)[C@@H](O)C[C@]3(C)[C@]2(C(=O)CCl)O1	-4	-10

# Overlap with the part before: 2 entries; new compounds follow.
structure	NPYLR7 ag	NPYLR7 ag max-min
COc1ccc(CN(Cc2ccc3c(c2)OCO3)CC(O)COc2ccc(OC)cc2)cc1 (centres undefined)	15	30
CC1(C)O[C@@H]2C[C@H]3[C@@H]4CCC5=CC(=O)CC[C@]5(C)[C@@]4(F)[C@@H](O)C[C@]3(C)[C@]2(C(=O)CCl)O1	-4	-10
O=S(=O)(c1cccnc1)N1CCCC(N2CCN(Cc3ccc4c(c3)OCO4)CC2)C1 (centres undefined)	5	3
CC(=O)Nc1cc(-c2cnn(C)c2)cn2c(-c3cccc(C(F)(F)F)c3)cnc12	-7	-11
CCc1ccc(-c2cc3c(SCC(=O)Nc4ccc(OC)cc4)nccn3n2)cc1	0	-1
CC(N=c1ccccn1C(=O)Nc1ccc(Cl)c(Cl)c1)c1ccco1 (centres undefined)	8	2
CC(C)N(C(=O)Cn1nc(-c2cccs2)c2sc(N3CCOCC3)nc2c1=O)c1ccccc1	0	-3
COc1ccsc1C(=O)Nc1ccccc1-c1n[nH]c(C(C)C)n1	9	6
Cc1ccccc1SC1CCN(C(=O)c2ncc[nH]2)CC1	0	-2
CCOCCOc1nc(-c2ccc(C(F)(F)F)cc2)n(-c2ccc(NC(=O)COC)cc2)n1	-4	-11
S=C(Nc1ccc(Cl)cc1)Nc1ccc2cn[nH]c2c1	-3	-11
O=C(CN1CCOc2ccccc2C1)NCCS(=O)(=O)N1CCCC1	9	6
Cc1ccoc1C(=O)N1CCC(CCC(=O)NCc2cccc(Cl)c2)CC1	5	1
CC(=O)N1CCN(c2ccc(F)cc2)C(=O)C1C (centres undefined)	0	3
Cc1oc(-c2ccco2)nc1CN(C)C(C)c1ccon1 (centres undefined)	17	1
CCCN1CCCc2cc(CCNC(=O)c3ccccc3C)ccc21	7	2
Cc1ccc(-n2cc(C(=O)N3CCSCC3)nn2)cc1	0	0
Cc1ccc(-n2c(C(C)N(Cc3ccccc3)C(=O)Nc3ccccc3Br)nc3cc(Cl)ccc3c2=O)cc1 (centres undefined)	18	21
Cc1noc(-c2ccco2)c1C(=O)NCCSCc1ccccc1	22	9
CCOc1ccccc1-c1nc(COC(=O)c2nnn(-c3ccc(Br)cc3)c2C)c(C)o1	1	-8
Cc1nc(CN2C(=O)C3(CCC3)ON=C2c2ccccc2)cs1	12	5
Nc1c(-c2ccccc2)cnc2c(-c3ccccc3)c(C(F)(F)F)nn12	-3	-8
O=C(Nc1ccc(-c2nc3cc(Cl)ccc3o2)cc1)c1ccc(Cl)c(Cl)c1	-4	-9
O=C(NCc1ccc2c(c1)OCO2)c1ccc(CSc2nnc(Cc3ccccc3)n2-c2ccccc2F)cc1	3	15
Clc1ccc(-c2nnc(SCc3cn4cc(Cl)ccc4n3)o2)cc1	-2	1
CCOc1cc(Nc2ccc(NC(=O)C(C)C)cc2)nc(C)n1	7	0
CCOC(=O)N1CCN(c2ncc3c(n2)CC(C)CC3=O)CC1 (centres undefined)	2	-1
C/C=C(\C)C(=O)N1CCC2(CCCN(CC3CCCCC3)C2)C1 (centres undefined)	9	-2
O=C(/C=C/c1ccccc1)NC1CCN(c2ccccc2C(=O)NCC2CCCCC2)CC1	-1	1
Cn1nnnc1SCCNC(=O)c1ccc2oc(-c3cccc(F)c3)nc2c1	9	-3
Cc1c2c([nH]c(=S)c1C#N)CCC2	0	-1
COCC(=O)N(Cc1csc(COc2ccccc2OC)n1)C(C)C	23	18

# (next part)
structure	NPYLR7 ag	NPYLR7 ag max-min
COCCCNC(=O)c1csc(CSc2nnc(-c3ccco3)n2-c2ccccc2)n1	-1	8
CCn1c(C)nnc1SCc1ccc(C(=O)NC2CC2)cc1	-5	-12
Cc1cc2ncn(CC(O)Cn3nnnc3-c3ccccn3)c2cc1C (centres undefined)	6	2
COCCNC(=S)N=Nc1c(O)[nH]c2ccc([N+](=O)[O-])cc12	-6	-6
COC(=O)c1cc(C(C)C)nc2c1c(-c1ccc(C)cc1)nn2C1CCS(=O)(=O)C1 (centres undefined)	13	9
COC(=O)Cc1sc2ccccc2c1Br	-2	3
CC(=O)Cn1c(=O)c(=O)n(CC(C)=O)c2nonc21	-5	-5
CCN(CC(C)C#N)C(=O)CN1CCC2(CCOC2)C1 (centres undefined)	9	6
CCOc1cc2c(c3[nH]c(C(=O)N4CCSCC4)cc13)OC(C)C2 (centres undefined)	8	7
CC(O)CNc1ncc(Br)c2ccccc12 (centres undefined)	0	-1
C=CCNC/C=C/COc1cc(C)ccc1C	-10	-16
Cc1ccc(S(=O)(=O)Nc2ccc3c(c2)OCCCO3)cc1C	11	7
Cn1cc(CCNC(=O)c2ccccc2OC2CCN(C(=O)c3cccnc3)CC2)cn1	4	0
Cc1c(CN(C)c2cc(N3CCCCC3)ncn2)cnn1C	12	8
O=C1NCC2(CCN(C(=O)c3ccccc3C3CCNC3)CC2)O1 (centres undefined)	8	4
Cc1nc2nc(CN3CCCC3c3nc4ccccc4s3)cc(=O)n2[nH]1 (centres undefined)	3	-4
CCOc1ccccc1NC(=O)CC(=O)NCc1cnc(C)cn1	14	5
CCOC(=O)c1nn(-c2ccc(C)cc2)c(=O)cc1N1CCN(C(=O)OCC)CC1	1	-1
O=C(Nc1ccc(N2CCC(NCCc3cccc(Cl)c3)CC2)cc1)C1CCCC1	24	11
CCCS(=O)(=O)N1CCN(c2nc(-c3ccccc3)nc(CC)c2Cc2cc(C)ccc2C)CC1	3	4
C=CCN1C(=O)C(=Cc2ccc(OC)c(OC)c2)SC1=S	1	-4
CN(C1CCCCC1)S(=O)(=O)NCC1Cc2ccccc2O1 (centres undefined)	-3	-4
O=C(Nc1cc(C(F)(F)F)ccc1-n1cncn1)c1ccc2c(c1)OCCO2	3	0
O=C1NC(=S)S/C1=C\c1ccc(-c2ccccc2C(=O)O)o1	15	18
CCCN1CC(Nc2ncc(C)c(N(C)C)n2)CC1=O (centres undefined)	-6&16	-7&7
COCCNC(=O)C(C1CCCC1)N1CCN(C(=O)c2cccs2)CC1 (centres undefined)	-7	-4
CC(NCCC(=O)NC1CCCCC1)c1cc(F)cc(F)c1 (centres undefined)	1	-3
O=C1CCCCC1Sc1n[nH]c(=O)n1Cc1ccccc1 (centres undefined)	3	2
COC(=O)c1cccc(S(=O)(=O)N(C)Cc2ccn[nH]2)c1C	3	0
O=C(c1cccnc1)N1CCOCC1	-3	3

# Compound profiles (already shown). Order of screens: NPYLR7 ag | NPYLR7 ag max-min
# `CN(C1CCCCC1)S(=O)(=O)NCC1Cc2ccccc2O1` (centres undefined) is listed with -3 | -4
# `COC(=O)c1cccc(S(=O)(=O)N(C)Cc2ccn[nH]2)c1C` is listed with 3 | 0
# `C=CCNC/C=C/COc1cc(C)ccc1C` is listed with -10 | -16
# `Cc1nc2nc(CN3CCCC3c3nc4ccccc4s3)cc(=O)n2[nH]1` (centres undefined) is listed with 3 | -4
# `CCOC(=O)c1nn(-c2ccc(C)cc2)c(=O)cc1N1CCN(C(=O)OCC)CC1` is listed with 1 | -1

# Additional entries
structure	NPYLR7 ag	NPYLR7 ag max-min
Cc1ccnc(CC(C)N(C)C(=O)c2cnn(Cc3ccccc3)c2)c1 (centres undefined)	4	0
C=CCn1c(=O)c2c(nc3n2CC(C)CN3c2ccc(OCC)cc2)n(C)c1=O (centres undefined)	-2	-4
COc1ccccc1-c1cc(C(=O)NCCc2ccccc2)n2nc(C(C)(C)C)cc2n1	12	10
Cc1cc(C=NNC(=S)NC(C)C)c(C)n1-c1ccc(I)cc1	-12	-13
Cc1[nH]cnc1CN(C)Cc1cccc2ncccc12	1	15
COCCCNC(=O)c1cc(NC(=O)Nc2ccccc2C(F)(F)F)ccc1N1CCCCC1	-1	1
COc1ccc(-c2cc(C(=O)N3CCN(C(=O)CC(C)(C)C)CC3)c(C)n2-c2ccc(C)cc2)cc1	-3	1
O=C(CC(c1cccc(F)c1)c1cn(Cc2ccccc2)c2ccc([N+](=O)[O-])cc12)NCc1ccco1 (centres undefined)	6	6
Cc1ccc(N2CCn3c2nc2c3c(=O)[nH]c(=O)n2C)cc1Cl	3	3
O=C(Cc1ccsc1)N1CCc2c([nH]c3ccccc23)C1c1ccccn1 (centres undefined)	7	13
COc1cccc(C(=O)N2[C@@H](c3ccco3)[C@@H](C(=O)O)C[C@]23CCCCNC3=O)c1	5	14
O=C1CN(S(=O)(=O)c2cccc(C(=O)N3CCN(Cc4ccccc4F)CC3)c2)CCN1	1	-2
Cc1ccc(-c2nn(CN3CCN(C(=O)c4ccoc4C)CC3)c(=S)o2)cc1	9	6
CCCC(C)(NC(=O)/C=C/c1cn(C)c(=O)n(C)c1=O)C(=O)OC (centres undefined)	1	7
CN(CCC1CCCCO1)Cc1cn(C)nc1-c1ccc2c(c1)OCCO2 (centres undefined)	-2	-5
CCNC(=O)NC1CCC(OC(=O)C(C)n2c(=O)oc3ccccc32)CC1 (centres undefined)	-3	-2
CC(=NN=C(N)N)c1ccco1	-3	-2
C=CCOCC(O)CN(Cc1ccc(F)cc1)Cc1ccccc1OC (centres undefined)	19	9
CC(O)C(C)S(=O)(=O)CC(=O)NC1CCCC1 (centres undefined)	8	4
c1nc(N2C[C@@H]3[C@H](C2)[C@H]2CC[C@@H]3O2)c2cc[nH]c2n1	2	0
CC(C)n1c(=O)c(C(=O)NCCOc2ccccc2)cc2cccnc21	1	2
CSc1ccc(CN2C(=O)C(C)ON=C2c2ccc3c(c2)CCO3)cc1 (centres undefined)	0	0
O=C(c1ccco1)N(CC(=O)N1CCc2sccc2C1COc1ccc(Cl)cc1)CC1CCCO1 (centres undefined)	-4	-2
CC(CN1CCCCC1)Nc1nc2ccccc2s1 (centres undefined)	10	8
CC(C)(C)OC(=O)N(Cc1ccc(F)cc1)C1CCC(C(=O)N2CCOC(Cc3ccccc3)C2)CC1 (centres undefined)	24	13
CCn1c(C2CCCN(C(=O)c3nn(C)c4ccc(C)cc34)C2)n[nH]c1=O (centres undefined)	20	12
Cc1cc(C)cc(C(=O)N2CCN(c3nc(C)cc(Nc4ccccc4)n3)CC2)c1	9	2
O=C(c1cnn(-c2ccccc2)n1)N1CCN(c2cc(N3CCCCC3)ncn2)CC1	-2	-2
Cc1c(C(=O)O)[nH]c2c1C(=NN1CC(=O)NC1=O)CC(C)(C)C2	1	29

# 3 entries from above, with two lines to a compound.
# Results follow in this order: NPYLR7 ag	NPYLR7 ag max-min
> CCNC(=O)NC1CCC(OC(=O)C(C)n2c(=O)oc3ccccc32)CC1 (centres undefined)
 : -3	-2
> C=CCOCC(O)CN(Cc1ccc(F)cc1)Cc1ccccc1OC (centres undefined)
 : 19	9
> COc1ccc(-c2cc(C(=O)N3CCN(C(=O)CC(C)(C)C)CC3)c(C)n2-c2ccc(C)cc2)cc1
 : -3	1

# Not all compounds are listed; the hit share may differ from the screen's.
